TRPML1 inh – blocks the human TRPML1 channel; Q9GZU1; TRPML1-inducible cells, Ca2+ dye fluorescence, FDSS; active compounds read low; inhibition of EC80 agonist-evoked calcium signal; activity change, negative = inhibition, % (no concentration beside the values); hit rate 0.02% among 390,000; in the data active means activity change below about -50%; inconclusive means about -30% to -50%; inactive means above about -30%;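 note: stimulus is agonist 54-4 at its EC80 concentration; % is set by controls: 0 for no effect and ±100 for the full control effect; compound concentration not given in the record; the text of the record puts the active cut at -80%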
Target sequence (Q9GZU1 whole entry, looked up): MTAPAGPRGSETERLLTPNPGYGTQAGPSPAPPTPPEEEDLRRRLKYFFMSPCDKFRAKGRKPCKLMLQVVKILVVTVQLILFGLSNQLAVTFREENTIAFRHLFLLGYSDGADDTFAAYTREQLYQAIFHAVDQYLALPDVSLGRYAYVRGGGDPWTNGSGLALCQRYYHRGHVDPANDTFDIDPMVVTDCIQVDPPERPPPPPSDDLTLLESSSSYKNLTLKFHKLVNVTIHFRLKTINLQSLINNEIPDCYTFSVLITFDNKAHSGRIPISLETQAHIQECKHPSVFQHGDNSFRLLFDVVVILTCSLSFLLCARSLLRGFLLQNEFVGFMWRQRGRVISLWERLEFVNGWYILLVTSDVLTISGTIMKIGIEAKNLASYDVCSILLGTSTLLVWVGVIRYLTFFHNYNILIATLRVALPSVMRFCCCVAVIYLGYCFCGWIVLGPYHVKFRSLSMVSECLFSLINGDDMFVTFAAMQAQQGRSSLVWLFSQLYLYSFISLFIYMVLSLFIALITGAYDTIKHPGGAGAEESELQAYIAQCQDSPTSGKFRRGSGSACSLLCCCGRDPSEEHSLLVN
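TRPML1-DL cells, Tet-induced overnight (~16 h, 37 °C) at 1,500 cells/well, were loaded with Ca8 no-wash dye plus quencher for 45-90 min at room temperature. Compounds were pinned during FDSS kinetic reading; agonist 54-4 at EC80 (4 uM final) then added.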
Menin-MLL FL inh – inhibitors of human menin-MLL interaction, wild-type MLL peptide | 290,000 tested, under 10 active | Fluorescence polarization, fluorescein-MLL peptide displacement from menin | FP activity change, % at 61.4 µM; inconclusive = falling polarisation curve, or a change in total fluorescence; inactive = total fluorescence flat and polarisation flat or rising; no compound was filed as active; the % refers to the polarisation; negative = inhibition;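 note: % of control where 0% means no effect; inhibitors lower the polarisation; unlabelled MLL peptide was the positive control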
gsp ag – gsp mutant agonism; AID 624287; hit rate 0.13% among 340,000; Potency, µM (doses to about 76.9 µM), for the others: top-dose activation (cAMP increase), actives largely listed as activators; gsp mutant cells, cAMP HTRF, 30 min; control for the full effect not named in the record; active = well fitted activation curve with a large enough effect; inconclusive = small, poorly fitted or top-dose-only effect, or another doubt; inactive = no such curve, though single readings can be large or run the other way; cell line not stated here;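 note: phosphodiesterase inhibitor Ro 20-1724 added with compounds to block cAMP breakdown; potency is the fitted concentration of half-maximal effect; nearly all actives have a fitted effect of over 60% in size; about a fifth of the inactives were tested at one dose only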
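Cells stably selected in G418 were plated at 2000/well, grown 16-24 hr, then given compounds in DMSO with the PDE inhibitor […] (300 uM solution added) for 30 min at 37C; cAMP was read by HTRF.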
gsp antagonist – antagonizes gsp, the McCune-Albright syndrome mutation; gsp-mutant cells, cAMP HTRF, 30 min; control for the full effect not named in the record; Potency, µM (highest dose often 76.9 µM), inactives show at the highest dose activity change, negative = inhibition, actives largely listed as inhibitors; hit rate 0.4% among 340,000; AID 624288; active = falling curve of any shape with a large fitted effect; inconclusive = falling curve, mostly with a smaller effect; inactive = flat or rising curve; cell line not stated here;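 note: intracellular cAMP measured with PDE inhibitor Ro 20-1724 present during compound exposure; potency is the fitted concentration of half-maximal effect; % is set by controls: 0 for no effect and ±100 for the full control effect; nearly all actives have a fitted effect of over 65% in size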
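Cells, 2000/well, grown 16–24 h in DMEM 10% FBS with 0.5 mg/ml G418, then compounds plus […] (300 uM addition stock), 30 min at 37C. cAMP read by HTRF (cAMP-d2 and anti-cAMP antibody-K in lysis buffer) after 30 min RT.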
ClpP mod – qHTS Assay for Activators of ClpP; hit rate 1.9% among 340,000; AID 651965, 2013; purified B. subtilis ClpP, FRET peptide cleavage, 20 min; Potency, µM (highest dose often 57.5 µM), for inactives: at the top dose activity change, negative = active; active = well fitted falling curve with a large enough effect; inconclusive = small, poorly fitted or top-dose-only effect; inactive = no such curve, though single readings can be large or run the other way; note: potency is the fitted concentration of half-maximal effect; the source files actives as falling curves though it sought activators and does not explain the sign; nearly all actives have a fitted effect of over 65% in size; many hits overshoot -100%
Target sequence (P80244 whole entry, looked up): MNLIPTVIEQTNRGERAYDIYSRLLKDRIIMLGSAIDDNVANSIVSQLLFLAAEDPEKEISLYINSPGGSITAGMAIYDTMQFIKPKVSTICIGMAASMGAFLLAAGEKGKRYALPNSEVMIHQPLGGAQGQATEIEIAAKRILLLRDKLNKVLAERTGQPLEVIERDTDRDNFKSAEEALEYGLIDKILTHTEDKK
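FRET quenching reversal measured ClpP activation: 10 microg/mL B. subtilis ClpP at pH 8 with the FRET-FV decapeptide, read at 430 nm after 320 nm excitation. The 20-min minus 0-min signal was scaled between DMSO/no-enzyme wells and ADEP (5.8 microM final).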
TRPML1 ag – activates the human TRPML1 channel | AID 624414 | Q9GZU1 | TRPML1-expressing cells, Ca2+ dye fluorescence, FDSS; host cell line not named in the record; reference of the full effect not given here | hit rate 0.12% among 410,000 | activation, % (no concentration beside the values); in the data active = activation above about 50%; inconclusive = about 30% to 50%; inactive = below about 30%; note: 0% is about no effect; the text of the record puts the active cut at 80%
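Tet-induced TRPML1-DL cells, 1,500 per well, cultured overnight, were loaded with a no-wash Ca2+ dye for 45–90 min. Calcium fluorescence was recorded on the FDSS for 110 s after compound addition, before the EC80 agonist (4 uM 54-4) was added.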
* = called active by the depositor; ? = inconclusive; · = no result given; & = joins results of further samples; [ ] = another dose, or the depositor's remark.

SMILES	ClpP mod	TRPML1 ag	gsp antagonist	gsp ag	TRPML1 inh	Menin-MLL FL inh
CCOC(=O)C1(Cc2ccc(Cl)cc2)CCN(C2CCC2)CC1	-10.0%	-1.3	3.6%	-0.1%[15.4 µM]	-0.1	1.2
O=C(Nc1cccc(Cl)c1)Nc1ccccc1-n1ccnc1	·	1.9	-5.8%	3.8%[15.4 µM]	1.5	-4.0
Cc1c(N(C)C(=O)C23CC4CC(CC(C4)C2)C3)c(=O)n(-c2ccccc2)n1C	-24.5%	0.8	1.7%[15.4 µM]	?	-13.3	2.4
CCCN1CCC(NC(=O)Cc2ccccc2OC)CC1	-3.5%	0.1	-4.9%	-11.1%	8.1	-8.9
Cc1ccc(S(=O)(=O)CCC(=O)Nc2cc(Cl)ccc2-n2cncn2)cc1	·	1.8	-6.1%	-16.2%[15.4 µM]	8.6	·
C#CCOc1c(Cl)cc(/C=C2/C(=O)ON=C2C)cc1OCC	-2.3%	·	8.3%	16.7%	·	-10.5
Cc1ccc(Cl)cc1N1CCN(C2CCCCC2NS(=O)(=O)c2ccccc2)CC1 (configuration not stated)	0.9%	0.6	3.5%	-5.3%	-2.2	1.6
C=CCn1c(=O)c(CCC(=O)Nc2ccc(N3CCOCC3)cc2)nc2cc(C(F)(F)F)ccc21	-7.7%	0.1	-2.4%	?	28.6	·
CC(C)c1c(O)nc(SCC(=O)N2CCOCC2)[nH]c1=O	-0.6%	0.5	0.5%	-28.7%	-11.6	3.8
c1ccc(-c2cn3nc(-c4ccccc4)cnc3n2)cc1	-1.0%	1.7	1.6%	-21.7%	-0.5	48.2[activator]
CCOc1ccc(S(=O)(=O)N2CCC(C(=O)NCC3CCCO3)CC2)cc1Cl (configuration not stated)	·	-0.3	4.8%	-12.0%	-13.3	-7.0
O=C(COC(=O)c1ccccc1N1C(=O)C2C3CCC(C3)C2C1=O)c1ccccc1 (configuration not stated)	-1.8%	0.1	0.3%	9.9%	13.4	3.6
Cc1cc(C(F)(F)F)nc(-n2cc(-c3cccc(N)c3)nn2)n1	·	-0.8	-1.6%	4.0%	0.2	-5.9
COc1ccc(-c2nnc(SCC(=O)N3CCCCC3)o2)cc1OC	-3.3%	0.8	-3.4%	-47.5%[inhibitor]	8.7	0.2
CC(=O)Nc1ccccc1OCC(O)CS(=O)(=O)c1ccc(C(F)(F)F)cn1 (configuration not stated)	-0.4%	0.9	2.5%	-15.6%	15.0	2.0
CCS(=O)(=O)N1CC(=O)N(c2ccc(Cl)cc2C)C(C)(C(=O)NC2CCCCC2)C1 (configuration not stated)	0.4%	0.4	·	·	27.0	·

Full records from above. Screens in order: ClpP mod | TRPML1 ag | gsp antagonist | gsp ag | TRPML1 inh | Menin-MLL FL inh
Record of `Cc1cc(C(F)(F)F)nc(-n2cc(-c3cccc(N)c3)nn2)n1` = · | -0.8 | -1.6% | 4.0% | 0.2 | -5.9
Record of `COc1ccc(-c2nnc(SCC(=O)N3CCCCC3)o2)cc1OC` = -3.3% | 0.8 | -3.4% | -47.5%[inhibitor] | 8.7 | 0.2

Later entries
SMILES	ClpP mod	TRPML1 ag	gsp antagonist	gsp ag	TRPML1 inh	Menin-MLL FL inh
Cc1cc(C)n(-c2cccc3cccnc23)n1	-0.8%	-0.9	-2.1%	2.6%	15.3	-0.8
CN(C)c1ccc(C(=O)C=Cc2ccc([N+](=O)[O-])cc2)cc1	-0.4%	-0.2	·	15.7%	11.2	·
N/C(CCS(=O)(=O)c1ccc(Cl)cc1)=N\OC(=O)c1ccccc1C(F)(F)F	·	1.2	1.1%	2.0%[15.4 µM]	16.7	-0.8
Cc1ccn2c(-c3csc(Nc4ccc(C(=O)O)cc4)n3)c(C)nc2c1	-19.9%	-0.5	·	22.4%	5.6	·
Cc1ccc(-n2c(=O)c3c(C)c(C)sc3n(CC(=O)c3ccc(Cl)cc3)c2=O)cc1C	0.0%	0.7	·	·	43.1	·
CCCCCC(=O)Nc1sc(C)c(C)c1C#N	1.7%	1.8	-9.0%	-4.0%[15.4 µM]	-3.7	1.7
CCC(C)CCN1C(Nc2ccccc2)=NC[C@@H]1Cc1ccccc1 (some centres not stated)	0.8%	-0.8	4.3%	·	5.5	-5.5
Cc1nnc(N/N=C/c2ccc(O)c([N+](=O)[O-])c2)[nH]c1=O	4.7%	-0.9	-14.5%	0.7%	1.3	-5.6
Cn1ccc2c(-c3ccc(F)cc3)cc3c(c21)C1CCC3C1 (configuration not stated)	4.4%	0.8	·	·	18.6	·
Nc1nnn(CC(=O)N/N=C/c2ccc(O)cc2)n1	·	-0.7	1.1%	18.5%[15.4 µM]	-7.9	-0.2
COc1cc(/C=C/C(=O)O)cc(OC)c1O	-18.7%	-0.8	0.0%	·	3.2	·
Brc1c(CSc2nnc(-c3ccco3)o2)nc2ccccn12	-1.0%	-0.9	-3.5%	-6.4%	3.1	-11.8
COc1ccc(C(=O)Nc2nnc(S(=O)(=O)N3CCCCCC3)s2)cc1OC	-25.5%&-6.5%	0.1&-0.1	-3.0%	?	13.3&1.5	-1.1
Brc1ccc(C2Nc3cccc4cccc(c34)N2)o1	-17.9%	0.1	-3.2%	-20.8%	26.7	?
COc1ccc(NC(=O)CN2C(=O)COc3ccc(S(=O)(=O)N4CCOCC4)cc32)cc1Cl	1.2%&-3.8%	1.9&4.6	-3.7%	36.5%	-11.4&-8.4	-4.2
CCOCCN1CCN(c2c3c(nc4cc(-c5ccc(F)cc5)nn24)CCC3)CC1	-3.1%	2.8	5.3%	-85.9%[inhibitor]	-6.4	2.1

In the list so far, these contain bromine.
SMILES	ClpP mod	TRPML1 ag	gsp antagonist	gsp ag	TRPML1 inh	Menin-MLL FL inh
Brc1c(CSc2nnc(-c3ccco3)o2)nc2ccccn12	-1.0%	-0.9	-3.5%	-6.4%	3.1	-11.8
Brc1ccc(C2Nc3cccc4cccc(c34)N2)o1	-17.9%	0.1	-3.2%	-20.8%	26.7	?

Further results.
SMILES	ClpP mod	TRPML1 ag	gsp antagonist	gsp ag	TRPML1 inh	Menin-MLL FL inh
N#Cc1ccc(OC(=O)Cc2ccsc2)cc1	0.7%	0.0	9.0%	-7.8%	4.1	·
CCOc1ccc(CCNC(=O)COC(=O)c2nc(Cl)ccc2Cl)cc1OCC	-2.2%	-0.8	-14.5%	-87.1%[inhibitor]	-1.9	·
COc1ccccc1NC(=O)C1=C(C)Nc2nnnn2C1c1ccc(C(F)(F)F)cc1 (configuration not stated)	-0.6%	0.4	·	·	15.2	·
Cc1cccc(N2CCN(C(=O)CN3C(=O)C4CC=CCC4C3=O)CC2)c1C (configuration not stated)	·	-0.7	1.6%	-19.8%[15.4 µM]	11.4	1.1
COC(=O)C[C@@H]1C[C@H]2c3cc(NS(C)(=O)=O)ccc3O[C@H]2[C@H](CO)O1	-3.0%	1.3	·	-4.4%	-7.6	·
CC1Cc2ccccc2N1C(=O)CSc1nnc(-c2ccc(S(=O)(=O)N3CCCC3)cc2)n1C (configuration not stated)	-1.3%	-0.2	-19.7%	6.5%	-21.9	1.2
CCn1c(COc2cccc(OC)c2)nnc1SCC(=O)Nc1cc(OC)ccc1OC	0.7%	0.1	-19.9%	?	-5.5	5.9
COc1ccc(C)cc1NC(=O)c1ccc2c(SCC(=O)O)c3c(nc2c1)CCCC3	0.6%	-0.3&-0.2	-10.4%	-26.2%	-8.1&-19.4	6.3

Results in Menin-MLL FL inh, TRPML1 ag and gsp antagonist (2 entries from above):
molecule	Menin-MLL FL inh	TRPML1 ag	gsp antagonist
CCn1c(COc2cccc(OC)c2)nnc1SCC(=O)Nc1cc(OC)ccc1OC	5.9	0.1	-19.9%
COc1ccc(C)cc1NC(=O)c1ccc2c(SCC(=O)O)c3c(nc2c1)CCCC3	6.3	-0.3&-0.2	-10.4%

(further entries)
SMILES	ClpP mod	TRPML1 ag	gsp antagonist	gsp ag	TRPML1 inh	Menin-MLL FL inh
COC(=O)NCC1(C)CC(NC(=O)OC)CC(C)(C)C1 (configuration not stated)	0.3%	-0.3	3.7%	-18.3%	25.8	0.8
O=C(Nc1ccccc1F)N1CCc2ccccc2C1	1.3%	1.7	-5.7%	-8.4%	14.5	3.2
Cc1ccc(O)c(C2=NCCNC(C(F)(F)F)=C2)c1	0.8%	-0.3	4.5%	-2.5%	-3.5	12.7
O=C(Nc1nn[nH]n1)c1cccc(Oc2ccccc2)c1	0.4%	1.5	-15.3%	?	3.4	2.5
COc1cc(C2C(C(C)=O)=C(O)C(=O)N2CCc2ccc(OC)c(OC)c2)ccc1O (configuration not stated)	-2.8%	-0.7	-4.6%	9.5%	0.8	0.3
COc1ccccc1NC(=O)COC(=O)CC(C)(C)CC1=NS(=O)(=O)c2ccccc2N1	-0.5%&0.6%	0.5&0.5	-23.7%	8.2%	3.9&-9.7	·
CC1CCCCC12NC(=O)N(CC(=O)N1CCN(C(=O)c3ccco3)CC1)C2=O (configuration not stated)	-2.3%	-0.5	10.1%	-0.1%	15.6	·
Cc1cccn2c(=O)c3cc(C(=O)N(Cc4ccccc4)C(C)C)sc3nc12	4.0%	2.6	·	·	30.1	·
COc1ccc(Cc2nnc(Cl)c3ccccc23)cc1OC	-0.6%	-0.9	5.4%	-1.4%	9.4	-1.1
CC(C)[C@H](N[C@@H](C)c1ccccc1)c1c(O)ccc2ccccc12	4.2%	-0.1	4.2%	?	14.5	0.9
O=C(Nc1ccc(N2CCOCC2)c(S(=O)(=O)Nc2ccccc2Cl)c1)c1ccc(=O)[nH]n1	-3.2%	-0.2	11.7%	0.7%	-10.1	·
CCCCOc1ccc(/C=N/NC(=O)C2CCCNC2=O)cc1 (configuration not stated)	1.4%	0.4	2.6%	0.3%[15.4 µM]	-0.8	1.3
COc1ccc2cc(CCNC(=O)c3cccs3)c(=O)[nH]c2c1	-16.4%	-0.9	-4.0%	5.2%	23.6	0.1
S=C(NCCc1ccc(Cl)cc1)NC1CCCC1	-1.0%	1.1	-11.2%	-49.6%[inhibitor]	0.7	-9.9
CC(C)n1c(=S)[nH]c2cc(C(F)(F)F)ccc21	·	1.9	-3.6%	?	3.2	1.3
O=C(NCc1ccccc1Cl)c1ccc(CS(=O)(=O)c2ccc(Br)cc2)o1	0.9%	11.2	·	·	0.4	·

Source: PubChem BioAssay
